# Yeast UUG start = modulators of yeast start codon fidelity, primary screen, whole organism, S. cerevisiae, single point, plate reader | AID 602363, 2012 | S. cerevisiae UUG-firefly luciferase reporter, luminescence/redox ratio | activity score, % at 18.7 µM | 350,000 tested, 0.13% active;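 active means replicate mean at a twofold rise or more, about +100% in these data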;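 further: firefly luciferase made from a UUG start codon reports start codon fidelity; reporter light over untreated wells divided by growth signal over untreated wells; some hits fall short of that in this replicate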
# PABP FP inh = PABP poly(A) RNA binding inhibitors, primary screen, biochemical, fluorescence polarization, uHTS | Polyadenylate-binding protein 1 (Homo sapiens), P11940 | inhibition, % at 35 µM | 290,000 tested, 1% active | AID 2014, 2009;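 active means 50% or more with normal probe brightness, or confirmed in later tests; inconclusive means above 50% with abnormal brightness, or retests that disagree; inactive means below 50% or failed in later tests; about a fifth of its hits are not listed in these tables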;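 further: calls also rest on retests at 20 µM and on dose response follow-up; controls were probe without protein and protein plus probe with vehicle; some compounds called inactive have numbers as strong as hits; many hits fall short of the cut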
# Target sequence (P11940 whole entry, looked up): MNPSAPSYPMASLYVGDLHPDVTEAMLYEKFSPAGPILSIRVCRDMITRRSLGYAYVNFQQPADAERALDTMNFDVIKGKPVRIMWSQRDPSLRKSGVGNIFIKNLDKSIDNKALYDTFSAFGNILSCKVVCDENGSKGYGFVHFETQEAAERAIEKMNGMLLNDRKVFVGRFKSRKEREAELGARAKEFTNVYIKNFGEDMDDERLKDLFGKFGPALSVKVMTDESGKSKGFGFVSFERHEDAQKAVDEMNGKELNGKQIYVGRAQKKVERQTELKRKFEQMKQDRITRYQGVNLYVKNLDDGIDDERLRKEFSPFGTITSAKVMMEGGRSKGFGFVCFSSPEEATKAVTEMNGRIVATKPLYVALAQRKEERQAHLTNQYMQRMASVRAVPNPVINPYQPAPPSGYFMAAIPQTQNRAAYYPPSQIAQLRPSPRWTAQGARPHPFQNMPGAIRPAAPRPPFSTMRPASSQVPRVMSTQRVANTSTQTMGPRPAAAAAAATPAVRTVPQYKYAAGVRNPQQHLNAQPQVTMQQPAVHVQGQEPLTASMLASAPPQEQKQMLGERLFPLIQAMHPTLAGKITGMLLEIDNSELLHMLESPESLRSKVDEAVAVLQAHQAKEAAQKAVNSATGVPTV
# Rce1 inhib = yeast Rce1p protease inhibitors, primary screen, biochemical, fluorescence, cell-free homogeneous. calls only. 290,000 tested, 0.27% active. CAAX prenyl protease 2 (Saccharomyces cerevisiae (strain ATCC 204508 / S288c)), Q03530. yeast membranes, quenched prenylated peptide cleavage fluorescence;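 active means fall in fluorescence gain of 50% or more versus controls, with final raw signal at or below 3038400; inconclusive means same 50% fall but final raw signal above 3038400; inactive means fall in fluorescence gain under 50%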;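 further: plate controls were neutral control wells for no effect and wells lacking membranes for full effect; tested at 10 µM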
# eIF4H inh = human eIF4H binding inhibitors, primary screen, translation initiation inhibitor project, biochemical, uHTS, fluorescence polarization; 290,000 tested, 0.94% active; Eukaryotic translation initiation factor 4H (Homo sapiens), Q15056; inhibition, % at 35 µM; eIF4H fluorescence polarization binding assay;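 active means 50% or more with normal probe brightness, or confirmed in later tests; inconclusive means above 50% with abnormal brightness, or retests that disagree; inactive means below 50% or failed in later tests; about a fifth of its hits are not listed in these tables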;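 further: calls also rest on retests at 20 µM and on dose response follow-up; 0% = protein and probe with vehicle and 100% = probe without protein; strong numbers were not always called active; many hits fall short of the cut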
# MT1-MMP act inh = blockers of MT1-MMP proenzyme processing, primary screen, HT1080 RFP-PRO-GFP cells, GFP/RFP fluorescence; Matrix metalloproteinase-14 (Homo sapiens), P50281; GFP/RFP ratio fluorescence, overnight; percent of plate control window, DMSO zero; GFP/RFP ratio change, % at 20 µM; 360,000 tested, 0.061% active; AID 651647, 2012;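 active means GFP/RFP ratio change of at least 30% with cell ATP level not reduced by more than half and red fluorescence within 50% of control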; further: strong numbers were not always called active
#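 Read-out: GFP/RFP fluorescence ratio; Test system: RFP-PRO-GFP reporter HT1080 cells; Compound dosing: single-point 20 µM compound, 1% DMSO; Times: overnight compound exposure at 37 °C.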
# Env fusion inh = inhibitors of HIV-1 Env-driven cell-cell fusion, primary screen, HeLa-JRFL effector, CEM21 target cells, luciferase | inhibition, % at 12.3 µM | 360,000 tested, 1.1% active | AID 651610, 2012;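 active means mean replicate inhibition score of at least 50 and every replicate individually at or above 50; inconclusive means only one of the two criteria met; inactive means mean below 50 and not all replicates reaching 50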;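 further: 0% = plate neutral controls and 100% = maraviroc near 300 nM; one replicate is shown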
# CSC inhib = cancer stem cell viability inhibitors, primary screen, luminescence; AID 2717, 2010; cancer stem cell-like cells viability; 300,000 tested, 1.1% active; inhibition, % at 7.5 µM;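 active means mean at 75% or more and at least half the replicates too; inconclusive means mean and replicates disagree; tested in HMLE shEcad cells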;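 further: 0% = median of negative and 100% = median of positive control wells; the first replicate is given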
# eIF4H inh retest = also measured in eIF4H inh; calls as there; inhibition, %; compound at 20 µM; confirmation average;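 mean of two retest wells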
# PABP FP inh retest = recorded beside PABP FP inh, whose call it bears; inhibition, %; compound at 20 µM; confirmation repeats;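 mean of two retest wells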
# MT1-MMP act inh RFP = second read-out of MT1-MMP act inh, no call of its own (marks repeat the call); RFP signal change, %; measured here: RFP expression control read;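 0 = vehicle wells; hits needed this value within 50% of zero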
# Starred values were filed as active, the others as inactive; i = inactive; u = inconclusive; x = not tested or not shown; & = joins results of further samples; [ ] = dose if it differs, or a comment.
SMILES,Yeast UUG start,PABP FP inh,Rce1 inhib,eIF4H inh,MT1-MMP act inh,MT1-MMP act inh RFP,Env fusion inh,CSC inhib,others
O=C1NC(c2ccc(Br)cc2)Nc2sc3c(c21)CCC3 (stereo not drawn),-2,66*,i,103*,-16,3,-14,2,eIF4H inh retest=82*;PABP FP inh retest=80*
Cc1ccc(-c2nc3cnccn3c2Nc2ccccc2)o1,-9,12,i,3,2,5,-35,-10,
Cc1cc(C)n(C(=O)CSc2nnc(SCC(=O)n3nc(C)cc3C)s2)n1,x,4,i,-11,2,8,x,-23,
COc1cccc(C(=O)CSc2nnc(-c3cc(OC)cc(OC)c3)o2)c1,-14,-11,i,-8,3,2,-63,3,
COc1ccc(Cl)cc1NC(=O)CSc1nnc(C2CC2)n1C,-17,5,i,-11,3,5,-15,24,
CC(c1ccccc1)C1CC(=O)N(c2ccc(C(=O)O)cc2)C1=O (stereo not drawn),-3,14,i,2,2,3,x,-4,
Cc1cccc(NC(=O)c2nc[nH]c2C(=O)N[C@@H](CC(C)C)C(=O)OCc2ccccc2)c1,-10,8,i,6,-1,-1,-54,x,
Nc1c(N2CCCC2)cc(Cl)c2nonc12,11,32,i,17,-16,12,x,-5,
CCOc1ccc(S(=O)(=O)NCc2ccccc2OC)cc1,-5,-1,i,-8,x,x,-9,x,
Cc1cc(C)nc(NC(=O)CSc2nccc(C)n2)n1,-17,-14,i,-6,-2,6,10,-11,
Cc1ccc(S(=O)(=O)N2CCOCC2)cc1NC(=O)CSCc1c(C)noc1C,-4,x,x,x,1,1,4,0,
COc1ccc(COC(=O)N/N=C/c2cccs2)cc1,-1,0,i,-4,0,0,-11,-2,

# Quoted at random: 6 compounds from above
SMILES,Yeast UUG start,PABP FP inh,Rce1 inhib,eIF4H inh,MT1-MMP act inh,MT1-MMP act inh RFP,Env fusion inh,CSC inhib,others
Nc1c(N2CCCC2)cc(Cl)c2nonc12,11,32,i,17,-16,12,x,-5,
Cc1ccc(S(=O)(=O)N2CCOCC2)cc1NC(=O)CSCc1c(C)noc1C,-4,x,x,x,1,1,4,0,
Cc1ccc(-c2nc3cnccn3c2Nc2ccccc2)o1,-9,12,i,3,2,5,-35,-10,
COc1cccc(C(=O)CSc2nnc(-c3cc(OC)cc(OC)c3)o2)c1,-14,-11,i,-8,3,2,-63,3,
CCOc1ccc(S(=O)(=O)NCc2ccccc2OC)cc1,-5,-1,i,-8,x,x,-9,x,
Cc1cc(C)nc(NC(=O)CSc2nccc(C)n2)n1,-17,-14,i,-6,-2,6,10,-11,

# Going on with the list.
SMILES,Yeast UUG start,PABP FP inh,Rce1 inhib,eIF4H inh,MT1-MMP act inh,MT1-MMP act inh RFP,Env fusion inh,CSC inhib,others
CC(C)COc1ccc(S(=O)(=O)NNC(=O)c2cc3ccccc3o2)cc1,5,-3,i,-4,-2,-2,-2,9,
O=C(CSc1nc2[nH]ncc2c(=O)[nH]1)Nc1ccc(F)cc1,-12,x,i,x,-9,1,-6,-13,
COC(=O)C1C(=O)NCC1c1ccc(C)cc1 (stereo not drawn),-14,3,i,-5,-2,0,x,-8,
CCCn1c(Sc2nnnn2-c2ccccc2)n[nH]c1=O,-18,-11,x,-1,4,3,-96,-7,
COc1ccccc1/C=C/CN1CCC(CO)(Cc2ccccc2)CC1,x,-10,i,-5,0,1,13,1,
COc1cccc(Nc2ccc(C(=O)O)cc2N)c1,-4,6,u,-4,10,7,-4,-5,
C[C@H](CO)N1C[C@H](C)[C@@H](CN(C)C(=O)Nc2ccccc2)Oc2ccc(NS(=O)(=O)c3ccc(F)cc3)cc2C1=O,3&15,x,x,x,10,7,-15[16.7 µM],-19,
CCn1c(C2CCN(Cc3ccccc3)CC2)n[nH]c1=S,x,-4,i,-7,-1,-4,-5,-5,
O=C(NC1CCCCC1)c1cc2cc(Br)ccc2o1,6,1,i,-4,-1,-1,-40,-6,
NS(=O)(=O)c1ccc(CNC(=S)NC2CCCCC2)cc1,-18,-3,i,-1,4,3,1,-1,
Cc1ncsc1CCC(=O)N1CCCC(C(=O)c2cccc(Cl)c2)C1 (stereo not drawn),-5,-10,i,-6,-1,-2,17,-2,
NC(=O)CC(NC(=O)Cc1ccc(Br)cc1)c1ccc(N2CCC(Cc3ccccc3)CC2)c([N+](=O)[O-])c1 (stereo not drawn),-13,-9,i,11,-3,-10,u,u,
COc1ccc(NC(=O)c2cnc(SC)nc2)cc1,-17,-4,i,-9,0,-6,-64,26,
CN(CCOc1ccccc1)C(=O)C1CCC(=O)N(CCCN2CCCC2=O)C1 (stereo not drawn),-7,-1,i,-12,-1,5,2,-9,
CN(CC(=O)N(CCO)Cc1ccccc1)S(=O)(=O)c1ccc2c(c1)c(=O)n(C)c(=O)n2C,-39,6,i,-3,-2,2,-16,-30,
COC(=O)[C@@]1(C)[C@H]2C(=O)N(Cc3ccccc3)C(=O)[C@H]2[C@H]2CN=C(SCc3ccc(Cl)cc3)N21,-13,x,x,x,1,-2,79*,x,
CC1=NN(c2nc3ccccc3s2)C(O)(C(F)(F)F)C1 (stereo not drawn),-8,8,i,0,3,2,-24,-8,
CCSc1nnc(NC(=O)CC(C)C)s1,x,-9,i,0,-1,1,-6,-4,
COc1cc(N)c2ncccc2c1Cl,-39,x,x,x,0,8,-4,x,
CCC(=O)N1COC[C@@H]1Cc1ccccc1,-7,5,i,2,2,3,-26,-11,
Cc1c(Cl)cn2c(=O)cc(CN3CCN(c4ccccc4)CC3)nc2c1Cl,-3,29,i,30,-7,-2,12,10,
CSc1cccc(NC(=O)CCn2c(=O)c3cccn3c3cccnc32)c1,-5,10,i,35,-3,-4,13,-6,
COc1ccc(S(=O)(=O)NC(=O)C2(C)CCN2C(=O)Cc2ccccc2Cl)cc1OC (stereo not drawn),6,x,x,x,-2,-1,-4,x,
O=c1c(-c2ccc(F)cc2)coc2cc(O)ccc12,-25,2,i,0,7,0,-111,-5,

# The final four compounds of the section before are carried over, then new ones follow:
SMILES,Yeast UUG start,PABP FP inh,Rce1 inhib,eIF4H inh,MT1-MMP act inh,MT1-MMP act inh RFP,Env fusion inh,CSC inhib,others
Cc1c(Cl)cn2c(=O)cc(CN3CCN(c4ccccc4)CC3)nc2c1Cl,-3,29,i,30,-7,-2,12,10,
CSc1cccc(NC(=O)CCn2c(=O)c3cccn3c3cccnc32)c1,-5,10,i,35,-3,-4,13,-6,
COc1ccc(S(=O)(=O)NC(=O)C2(C)CCN2C(=O)Cc2ccccc2Cl)cc1OC (stereo not drawn),6,x,x,x,-2,-1,-4,x,
O=c1c(-c2ccc(F)cc2)coc2cc(O)ccc12,-25,2,i,0,7,0,-111,-5,
C/C(=N\NC(=O)Cc1ccc(Cl)cc1)c1ccccn1,-16,-1,i,9,13,-3,31,72,
CC(=O)Nc1ccc2nc(NC(=O)c3cccs3)sc2c1,-27,11,i,-3,2,3,-5,30,
CN(C)S(=O)(=O)c1ccc(C(=O)N2CCN(S(=O)(=O)c3cccs3)CC2)cc1,x,2,i,7,-3,2,11,1,
COc1ccc(S(=O)(=O)NCc2ccccn2)cc1NC(=O)c1ccccc1F,-11,-2,i,0,4,-8,-144,51,
COc1ccc(NC(=O)Nc2ccc(N3CCCC3=O)cc2)cc1OC,-10,-3,i,-10,2,-6,x,18,
CC(=O)NC(C)c1cc(Cl)c2cccnc2c1O (stereo not drawn),-16,x,x,x,0,-5,x,47,
COc1cc2c(cc1Cl)C(=O)C(F)(c1ccccc1)C(=O)N2 (stereo not drawn),x,10,i,-16,0,1,-7,-1,
COCC(=O)N(C)C[C@H]1Oc2cc(C#Cc3cccnc3)ccc2S(=O)(=O)N([C@H](C)CO)C[C@H]1C,23&19,x,x,x,-7,5,31&9[16.7 µM],x,
Cc1oc2cc(O)ccc2c(=O)c1-c1cnn(-c2ccccc2)c1,-10,-2,i,-3,-1,5,x,x,
Cc1ccc2c(c1C)NC(C)CC2C (stereo not drawn),-3,-1,i,-3,-1,7,x,-11,
CCOc1ccc(CC(=O)Nc2c(C(=O)Nc3ccccc3)oc3ccccc23)cc1OCC,-6,9,x,-6,2,-4,-68,7,
COc1cc(OC)c(/C=N/NC(=O)c2ccncc2)cc1Br,x,-3,i,-6,-1,-4,-7,-14,
CC1(C)Cc2[nH]c(=S)c(C#N)cc2CO1,-19,27,i,-4,-2,-1,8,x,
Cc1ccc(S(=O)(=O)NC(=NC(C)C(=O)O)c2ccccc2)cc1 (stereo not drawn),-13,10,i,-10,3,7,x,-5,
O=C(COC(=O)c1ccc(Cl)c(S(=O)(=O)N2CCOCC2)c1)NCc1ccco1,-10,x,i,x,2,0,1,-5,
CCOC(=O)C1CCN(C(=O)CN(c2ccc3c(c2)OCCO3)S(C)(=O)=O)CC1,-13,-6,i,-2,1,1,x,x,
NS(=O)(=O)c1ccc(CCNC(=O)c2ccc(Br)s2)cc1,x,-9,i,0,1,3,12,-14,
Cc1ccc2oc(C(=O)Nc3ccc(S(=O)(=O)Nc4ncccn4)cc3)c(C)c2c1,-6,-5,i,-11,-3,1,-14,16,
CC1CCCN(C(=O)c2cc3ccccc3cc2O)C1 (stereo not drawn),-4,3,i,-12,-1,-1,-4,3,
O=C1CC(c2nc3ccccc3[nH]2)CN1Cc1ccccc1 (stereo not drawn),-1,-12,i,-13,1,1,-19,7,
CCn1c(SCC(=O)c2ccc(O)c(O)c2)nnc1-c1ccc(C)cc1,x,41,i,48,-2,-9,x,18,
N#Cc1c(/N=C/c2ccc(Br)s2)sc2c1CCC2,-18,-9,x,u,-5,2,-64,x,
CC(=O)Nc1ccc(CN(C)c2c(C)nc3ccc(C(=O)NCCCn4ccnc4)cn23)cc1,-15,x,x,x,6,9,-1,x,
Clc1ccccc1C(c1nnnn1Cc1ccco1)N1CCN(Cc2ccco2)CC1 (stereo not drawn),-4,19,x,2,-20,-6,-86,x,
Cc1cc2c(=O)oc(-c3ccccc3Br)nc2s1,x,-8,i,-1,4,7,7,x,
O=[N+]([O-])c1cc(C(F)(F)F)ccc1NC1CCN(Cc2ccccc2)C1 (stereo not drawn),-3,8,i,111,-1,2,19,41,eIF4H inh retest=-3;PABP FP inh retest=-4
CC(=O)Nc1cccc(C(=O)OCC(=O)Nc2ccc(Cl)cn2)c1,-15,x,i,x,0,2,x,-11,
Cn1c(=O)c2ccccc2n(CC(=O)NC2CCCCC2)c1=O,-8,2,i,-1,-1,0,8,-6,
CC1(C(=O)O)CCN1C(=O)c1ccccc1F (stereo not drawn),-8,x,x,x,0,3,-16,x,
CCOc1ccc(NS(=O)(=O)c2ccc3[nH]cc(C(=O)NCCOC)c(=O)c3c2)cc1,-22,6,i,11,-5,-11,3,21,

# Screening data as filed in PubChem BioAssay.

# Some of the compounds tested; the hit share may differ from the screen's.
